Vaccinia mCherry: inhibitors of vaccinia virus infection (mCherry reporter signal); Vaccinia virus mCherry reporter infection, fluorescence; about a quarter of the inactives have no number; Potency, µM (series often up to 36.5 µM), for inactives: top-dose activity change, negative = inhibition, usual class: inhibitors; 310,000 compounds, 0.63% hits; AID 720579; active = well fitted inhibition curve with a large enough effect; inconclusive = small, poorly fitted or top-dose-only effect; inactive = no such curve, though single readings can be large or run the other way; tested in A549 cells; note: nearly all actives have a fitted effect of over 35% in size; inactives centre near -10
VACV Venus inh: vaccinia inhibition (Venus reporter); Vaccinia virus Venus reporter expression, fluorescence; Potency, µM (top dose mostly 36.5 µM), for inactives: at the top dose activity change, negative = inhibition, usual class: inhibitors; 330,000 compounds, 0.46% hits; AID 720580; active means well fitted inhibition curve with a large enough effect; inconclusive means small, poorly fitted or top-dose-only effect; inactive means no such curve, though single readings can be large or run the other way; tested in A549 cells; note: nearly all actives have a fitted effect of over 30% in size; inactives centre near -10
* marks the source's active call; other numbers are inactive results; i = inactive; ? = inconclusive; / = not tested or not shown; & = joins results of further samples; [ ] = remark or other dose. % is set by controls: 0 for no effect and ±100 for the full control effect; potency is the fitted concentration of half-maximal effect.

SMILES	Vaccinia mCherry	VACV Venus inh
O=C(CCC(=O)Nc1ccccc1)N/N=C/c1ccc2c(c1)OCO2	i	-11%
COc1ccccc1/C=C1\SC(=S)N(NS(=O)(=O)c2ccccc2)C1=O	5%	1%
CCC1=C(NCc2ccccc2)COC1=O	i	-7%
COC(=O)CCNC(=O)c1ccc2[nH]c(C)c(C)c2c1	i	2%
CC1=C[C@@H](C)[C@@H](c2ccccc2)OC1=O	-14%	2%
CCOC(=O)C1CCN(C(=O)CC(C)S(=O)(=O)c2ccc3c(c2)NC(=O)CO3)CC1 (centres undefined)	-1%	-15%
Cc1cc(OCCN2CCCC2)ccc1[N+](=O)[O-]	-10%	-2%
COc1cccc(NC(=S)NC(=O)c2c(Cl)c(C)nn2C)c1	-14%	-7%
O=C(NCC1CC1)C1(S(=O)(=O)c2ccccc2)CC=CC1	i	-5%
COc1ccc(C2=Nc3ccccc3N(C(=O)c3cccnc3)C2C(=O)NC(C)(C)C)cc1 (centres undefined)	-2%	-16%
COc1cccc(CN2CCC(C(=O)Nc3ccc(Oc4cccnc4)cc3)CC2)c1	-7%	-9%
COCCNC(=O)c1sc2nc(-c3ccccc3)cn2c1C	3%	-1%
COC(=O)c1c(NC(=O)/C(C#N)=C/c2ccccc2)sc2c1CCC2	-5%	-5%
COc1cccc(Cn2ccn(-c3ccc(F)cc3)c(=O)c2=O)c1	-6%	-6%
Cc1ccc2c(c1)c1c3n2CCN(C(=O)C2CC2)C3CCC1 (centres undefined)	-26%	-21%
CC(=O)N1CCc2c(sc3c2c(=O)n(-c2cc(Cl)ccc2C)c(=O)n3C)C1	-5%	-8%
CC[N+](CC)(CC)CCC(O)(c1ccccc1)C1CCCCC1 (centres undefined)	-12%	-10%
COc1cccc(C(=O)Nn2c(-c3cccs3)nc3ccccc3c2=O)c1OC	i	-5%
Cc1nn(C(C)C(=O)NCc2ccc(OC(C)C)cc2)c(=O)c2c1sc1ccccc12 (centres undefined)	-4%	-2%
COc1ccc(N2CCN(CC(O)COCCOc3ccc(Br)cc3)CC2)cc1 (centres undefined)	-22%	1%
CCc1noc(C)c1C(=O)OCC(=O)N(CC)c1c(N)n(Cc2ccccc2)c(=O)[nH]c1=O	-13%	-11%
CCOC(=O)N(C)c1ccc(C(O)(C(F)(F)F)C(F)(F)F)cc1	/	?
CC(C)(C)C1=C(C#N)C(c2cc3c(cc2Br)OCO3)C(C#N)=C(N)O1 (centres undefined)	/	?
CS(=O)(=O)NCCSc1cc(C(F)(F)F)nc2ccccc12	i	-11%
COC(=O)C1=C(c2ccc(S(C)(=O)=O)cc2)C[C@@H]2CC[C@H]1N2C(=O)NCc1ccc(F)cc1	i	-9%
SMILES	Vaccinia mCherry	VACV Venus inh
CCN(C[C@H]1N[C@@](CC)(C(=O)OC)[C@H]2C(=O)N(C)C(=O)[C@@H]12)C(=O)Nc1ccc(Cl)cc1	-12%	-5%
CC(NC(=O)CNC(=O)OCc1ccccc1)C(=O)N1CC(O)CC1C(=O)OCc1ccccc1 (centres undefined)	/	-18%
CCOc1ccc(CNC(=O)C2CCN(C(=O)c3ccc(-n4ccc5ccccc54)s3)CC2)cc1	-18%	-18%
Cc1ccc(C(=O)Cc2ccccc2)cc1	-4%	-2%
Cc1c(N)cccc1-n1cccc1	-13%	-6%
COc1ccc(C(=O)NC(=S)Nc2ccc(CN3CCCCC3)cc2)cc1Cl	-15%	-12%
Cc1cc2c(cc1S(=O)(=O)CCC(=O)NCc1ccccc1)OCC(=O)N2	-24%&13%	0%&13%
CNC(=O)C(C)Sc1ccc(S(=O)(=O)N2CCOCC2)cn1 (centres undefined)	-13%	-4%
O=C(Nc1nnc(CCN2CCCCC2)s1)C1CCCCC1	/	5%
COc1cc2nc(N(C)C)c(CNCc3cccc4ccccc34)cc2c(OC)c1OC	i	-4%
O=C(NCc1ccccc1)/C(=C\c1ccc(O)cc1)NC(=O)c1ccco1	i	-9%
COc1cccc(C2C(C(=O)Nc3ccc(Cl)cc3)=C(C)Nc3c(C(=O)Nc4ccccc4)cnn32)c1OC (centres undefined)	-9%	-17%
COc1ccc(C(=S)N2CCOCC2)cc1OC(=O)c1ccc([N+](=O)[O-])cc1	-3%	-11%
COCc1cc(N2CCOCC2)nc(SCc2ccc(Cl)cc2)n1	i	2%
CCOC(=O)CSc1ncnc2c(C(=O)OCC)c3n(c12)CCC3	i	-4%
O=c1[nH]snc1N1CCOCC1	-27%	-9%
Cc1cc(C(=O)C(C)OC(=O)c2ccc(NC(=O)CC#N)cc2)c(C)n1-c1ccc(OC(F)F)cc1 (centres undefined)	-10%	?
Cc1c(C(=O)N2CCC3(CC2)OCCO3)sc2ncnc(N(C)c3ccccc3)c12	/	?
Cc1cc(C)c2c(N)c(C(=O)c3ccc(Br)cc3)oc2n1	-18%	-27%
CCN1CCN(C(=O)c2ccc3c(c2)N(Cc2ccc(F)cc2)C(=O)c2ccccc2S3(=O)=O)CC1	-17%	-12%
COC(=O)C(NC(=O)c1ccc(C)cc1)(Nc1cccc(C)n1)C(F)(F)F (centres undefined)	-8%	-9%
Cn1nc(-c2ccc(N3CCN(CCO)CC3)c([N+](=O)[O-])c2)c2ccccc2c1=O	-12%	-12%
CC1=CC(=C(C#N)c2nc3ccccc3s2)C=C(C)N1c1ccc(F)cc1F	?	-15%
Cc1ccc(NC(=O)c2ccc(Cl)c(S(=O)(=O)NCC3CCCO3)c2)c(O)c1 (centres undefined)	i	-19%
CCc1ccc(CN2CCC(n3nccc3NC(=O)c3cccc(F)c3)CC2)cc1	-13%	-27%

Random excerpt: five compounds from above
SMILES	Vaccinia mCherry	VACV Venus inh
COC(=O)C(NC(=O)c1ccc(C)cc1)(Nc1cccc(C)n1)C(F)(F)F (centres undefined)	-8%	-9%
Cc1cc(C)c2c(N)c(C(=O)c3ccc(Br)cc3)oc2n1	-18%	-27%
CCOC(=O)C1CCN(C(=O)CC(C)S(=O)(=O)c2ccc3c(c2)NC(=O)CO3)CC1 (centres undefined)	-1%	-15%
CCOC(=O)N(C)c1ccc(C(O)(C(F)(F)F)C(F)(F)F)cc1	/	?
COc1cccc(CN2CCC(C(=O)Nc3ccc(Oc4cccnc4)cc3)CC2)c1	-7%	-9%

Further entries:
SMILES	Vaccinia mCherry	VACV Venus inh
CCOC(=O)c1cc(S(=O)(=O)N2CCN(Cc3ccccc3)CC2)cn1C	i	11%
C=CCc1cc(Cl)ccc1OCCOCCN(C)C	-10%	-4%
O=C(CCNc1ccc(F)c(Cl)c1)c1ccco1	?	?
C=CCNC(=O)c1c(CS(=O)(=O)c2ccccc2)noc1C(=O)NCc1ccccc1	i	-5%
COCCCNCC#CCOc1ccc(OC)cc1	i	-2%
Cc1c(C)n2c(SCC(=O)N3CCCC3)nnc2[nH]c1=O	i	-7%
COc1ccc(C2C=C(C34CC5CC(CC(C5)C3)C4)NC(=S)N2)cc1OC (centres undefined)	-10%	-16%
CC(C)CC(N)c1csc(NC(=O)Nc2ccccc2-c2ccccc2)n1 (centres undefined)	-4%	?
CN(C)CCNc1ncnc2c1ncn2[C@H]1CN(C)C[C@@H](CO)O1	9%	5%
COc1cc(/C=N/NC(=O)c2cnccn2)cc(OC)c1OC	-11%	12%
CC(=O)c1sc(NC(=O)C2CCN(C(=O)c3ccccc3C)CC2)nc1-c1ccccc1	-9%	-24%
O=C1c2cccc(OCC(=O)N3CCCc4ccccc43)c2CCN1Cc1ccccc1	-15%	-2%
O=C(Nc1cccc(Cl)c1)c1cnccn1	i	-17%
CCOC(=O)c1cnn(-c2ccc(C(=O)Nc3cccc(C(C)=O)c3)cc2)c1N	-9%	-8%
O=C(COC(=O)CCSc1ccccc1Cl)NCc1ccco1	-12%	-13%
CN(CCCC(=O)c1cccnc1)N=O	-18%	-8%
O=c1c2cc3ccccc3n2cnn1Cc1ccccc1F	-12%[1.46 µM]	-39%
CCOc1ccc(-c2cnc(NCc3ccc(C(F)(F)F)cc3)n2C)cc1	?	?
COC(=O)c1cccc(S(=O)(=O)N2CCN(c3nc4ccccc4s3)CC2)c1	i	-9%
O=C(NC1CCCCC1c1ccccc1)c1ccccc1 (centres undefined)	-18%	3%
CCOC(=O)c1cccc(NC(=O)CSc2nncn2-c2ccccn2)c1	-6%	-13%
COc1ccc(S(=O)(=O)N2CCC(C(=O)N[C@@H](C)C(=O)NCc3ccccn3)CC2)cc1	-14%	1%
Cc1cc(C)n2ncc(C(=O)NCc3ccc(Cl)cc3)c2n1	i	-10%
CC(C)C(=O)c1cn(Cc2ccc(C#N)cc2)c2ccccc12	-22%	-22%
Cc1cc(C)c[n+](-c2nc3ccccc3nc2[N-]S(=O)(=O)c2ccc(Cl)cc2)c1	-2%	-13%

Compound profiles, from the list above:
CC(=O)c1sc(NC(=O)C2CCN(C(=O)c3ccccc3C)CC2)nc1-c1ccccc1 is listed with Vaccinia mCherry: -9%; VACV Venus inh: -24%
O=C1c2cccc(OCC(=O)N3CCCc4ccccc43)c2CCN1Cc1ccccc1 is listed with Vaccinia mCherry: -15%; VACV Venus inh: -2%

Next part.
SMILES	Vaccinia mCherry	VACV Venus inh
CCOC(=O)c1ccc(NC(=O)CCS(=O)(=O)c2ccc(Br)s2)cc1	-5%	-7%
CCOc1ccc(NC(=O)CC2C(=O)N(c3ccccc3)C(=O)N2Cc2ccco2)cc1 (centres undefined)	-6%	-11%
CCOc1ccc(CN2CCNC(=O)C2CC(=O)NC2CCCCCC2)cc1 (centres undefined)	i	-12%
COc1ccc(/C=C2\CCC(C3CCCC3)C2=O)cc1 (centres undefined)	-1%	-2%
Cc1cc(C)c(NC(=O)CN2CCN(C)CC2)c(C)c1	-4%	-4%
CCc1ccccc1NC(=O)Cn1nnc(C(=O)NCc2cccs2)c1N	-20%&-19%	-26%&-8%
COc1ccc(CCN2C(=O)NC(NS(=O)(=O)c3ccc(N)cc3)(C(F)(F)F)C2=O)cc1OC (centres undefined)	i	-11%
O=C1NC[C@@H](CCCCN2CCN(Cc3ccccc3)C(=O)C2=O)N(CCC2CCCCC2)C1=O	36%[activator]	-1%
O=C(Cc1ccc([N+](=O)[O-])cc1)N1CCCCCC1	-10%	-6%
CC(C)(C)SCCNC(=O)/C=C/c1ccc([N+](=O)[O-])cc1	i	-22%
COc1cc(C=Nc2cccc([N+](=O)[O-])c2C)ccc1OC(C)=O	i	-10%
Cn1c(N)c(C(=O)COC(=O)c2ccc(-c3ccccc3)cc2)c(=O)n(C)c1=O	-6%	3%
Cc1cccc(C)c1NC(=O)CSc1nnc(-c2ccoc2C)n1C	i	-3%
CCc1ccc(NC(=O)c2cc3c(=O)n(Cc4cccs4)ccc3nc2C)cc1	-8%	-11%
Cc1ccc(NC(=O)c2ccc(F)c(S(=O)(=O)N3CCOCC3)c2)cc1F	?	-25%
CCCCOc1ccc(C(=O)N2CC(C)OC(C)C2)cc1 (centres undefined)	-18%	-19%
CC(=O)Nc1ccc(NC(=O)CSc2nnc3ccc(-c4cccnc4)nn23)cc1	-8%	-10%
COc1ccc(C(=O)N/C(=C\c2ccco2)C(=O)NCCN2CCOCC2)cc1	i	-8%
CC(C)C[C@H]1CNC(=O)C(=O)N1C[C@H]1CCCN1C[C@H](CC(C)C)N1C[C@H](Cc2ccccc2)N(CCc2ccccc2)C(=O)C1=O	6%	-6%
Cc1nsc2nc3c(F)c(F)c(F)c(F)c3cc12	-8%	-22%
CN(C)c1cccc(C(=O)N2CCCC(C(=O)c3cc(F)ccc3F)C2)c1 (centres undefined)	0%	4%
COc1ccc(CCN2C(=O)COc3ccccc3C2C(=O)Nc2c(C)cccc2C)cc1OC (centres undefined)	43%[activator]	12%
Cc1ccc(-n2nnnc2Sc2nc([N+](=O)[O-])nn2C)c(C)c1	/	?
CCc1ccc(CN(C(=O)c2cccs2)C2CCS(=O)(=O)C2)cc1 (centres undefined)	-23%	-13%
O=C1C(=O)C(c2ccc(O)cc2O)Oc2cc(O)cc(O)c21 (centres undefined)	29%	4%

Rewritten comma-delimited: entries from further up.
compound,Vaccinia mCherry,VACV Venus inh
CC(C)(C)SCCNC(=O)/C=C/c1ccc([N+](=O)[O-])cc1,i,-22%
CCc1ccc(NC(=O)c2cc3c(=O)n(Cc4cccs4)ccc3nc2C)cc1,-8%,-11%

Further records follow:
SMILES	Vaccinia mCherry	VACV Venus inh
O=C(CN(CC1CCCO1)C(=O)CCC(=O)Nc1ccccn1)NCc1ccccc1 (centres undefined)	-13%	-15%
COc1cc(/C=C/C(=O)O)cc(S(=O)(=O)NNC(=O)c2cc(C)oc2C)c1OC	i	-14%
Cc1cc(=O)oc2cc(OC(C(=O)O)c3ccccc3)ccc12 (centres undefined)	-12%	-12%
O=C(COC(=O)COc1cccc2ccccc12)NCC(F)(F)F	-15%	-18%
CCc1ccccc1N1C(=O)N(CC(=O)c2ccc(Cl)cc2)c2ccccc2S1(=O)=O	6%	-7%
Cc1ccc(O)c(NC(=S)NC(=O)c2ccc(-c3ccc(Cl)cc3)o2)c1	-6%	?
Nc1ccccc1Nc1nc2ccccc2[nH]1	-29%	-4%
CCc1ccc(-n2c(SCc3ccccc3Cl)nc3[nH]ncc3c2=O)cc1	-17%	-20%
Cc1ccccc1NC(=S)NC(NC(=O)c1ccco1)C(Cl)(Cl)Cl (centres undefined)	-7%	-3%
O=C(Nc1cc([N+](=O)[O-])ccc1F)c1cccs1	-22%	-9%
CC1(C(=O)NCc2ccccn2)CCN1C(=O)Cc1ccc(Cl)cc1Cl (centres undefined)	46%[activator]	1%
O=C(CC(CC(=O)c1ccccc1)c1ccco1)c1ccccc1	i	-14%
O=S1(=O)CCN(C2CC2)CC1	0%	-5%
COc1ccc(Cl)cc1N(C)C(=O)CCc1nc(-c2ccc(C)cc2)no1	/	-26%
CCSc1nnc(NC(=O)CSc2nnc(Cc3cccn3C)n2-c2ccc(F)cc2)s1	-7%	-1%
COc1ccc(-n2c(O)c(C=Nc3ccccc3)c3ccccc3c2=O)cc1	-14%	4%
